Lassa entry inh – blocks Lassa virus binding to or entry into cells; Lassa virus pseudotype entry inhibition, cell reporter; control for the full effect not named in the record; Potency, µM (top dose mostly 37.9 µM), without a hit: top-dose activity change, negative = inhibition, hits mostly inhibitors; 300,000 compounds, 1.2% hits; active means well fitted inhibition curve with a large enough effect; inconclusive means small, poorly fitted or top-dose-only effect, or effect the other way; inactive means flat fitted curve, though single readings scatter; tested in HEK293 cells; further: on the % scale 0 is the no-effect control and ±100 the full control effect; nearly all actives have a fitted effect of over 50% in size; luciferase read-out
Cruzain inh Det – blocks cruzain activity in presence of Triton detergent | P25779 | purified cruzain, Z-FR-AMC fluorescence, 0.01% Triton | Potency, µM, without a hit: max response, negative = inhibition, most hits filed as inhibitors | 200,000 compounds, 0.43% hits;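 further: plate controls were neutral wells for no effect and buffer without enzyme for full effect; nearly all actives have a fitted effect of over 40% in size; top concentration of the series not given in the record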
Target sequence (P25779 123-467 limits assumed): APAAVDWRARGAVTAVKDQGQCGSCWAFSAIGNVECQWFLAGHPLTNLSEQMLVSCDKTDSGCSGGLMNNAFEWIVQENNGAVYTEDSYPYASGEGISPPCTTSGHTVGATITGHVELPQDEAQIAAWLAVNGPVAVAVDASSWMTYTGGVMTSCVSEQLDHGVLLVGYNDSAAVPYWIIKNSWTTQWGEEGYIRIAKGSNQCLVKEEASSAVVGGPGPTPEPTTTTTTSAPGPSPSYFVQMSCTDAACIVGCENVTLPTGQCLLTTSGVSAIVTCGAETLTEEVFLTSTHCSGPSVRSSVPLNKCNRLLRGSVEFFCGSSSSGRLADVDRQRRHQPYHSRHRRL
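15 min RT preincubation of 1.5 nM cruzain with compound, then 2 uM Z-FR-AMC added; kinetic AMC fluorescence, 60 s delta. Triton X-100 0.01%, pH 5.5.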
NS1 inh – influenza NS1 inhibition; S. cerevisiae slowed by influenza A NS1, growth recovery by OD600; Potency, µM (doses to about 46.1 µM), inactives show at the top dose activity, positive = more growth; 270,000 compounds, 0.4% hits; AID 2326; active means well fitted rising curve with a large enough effect; inconclusive means small, poorly fitted or top-dose-only effect; inactive means no such curve, though single readings can be large or run the other way; further: nearly all actives have a fitted effect of over 50% in size
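A cell-based growth assay was used: compounds that relieve NS1-induced slow growth of budding yeast raise OD600. Assay medium was yeast nitrogen base with ammonium sulphate and -URA supplement, pH 6.0, with 2% galactose.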
MARV entry inh – inhibitors of Marburg virus binding or cell entry; Potency, µM (titrated, usually from 37.8 µM), without a hit: at the highest dose activity change, negative = inhibition, usual class: inhibitors; 300,000 compounds, 1.8% hits; AID 540276; Marburg virus pseudotyped entry inhibition, cell reporter; control for the full effect not named in the record; about a third of the inactives were read at about 46 µM; active = well fitted inhibition curve with a large enough effect; inconclusive = small, poorly fitted or top-dose-only effect, or effect the other way; inactive = flat fitted curve, though single readings scatter; tested in HEK293 cells; about a fifth of its hits are not listed in these tables; further: on the % scale 0 is the no-effect control and ±100 the full control effect; luciferase read-out
Cruzain noTriton – inhibitors of Trypanosoma cruzi cruzain without detergent. 200,000 compounds, 2.3% hits. purified cruzain, Z-FR-AMC fluorescence, no detergent. P25779. Potency, µM, inactives show max response, negative = inhibition, usual class: inhibitors. AID 1476;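 further: plate controls were enzyme without inhibitor for no effect and buffer without enzyme for full effect; nearly all actives have a fitted effect of over 40% in size; top concentration of the series not given in the record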
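Detergent-free condition (0.00005% Triton X-100) in acetate buffer pH 5.5 with DTT. 1.5 nM enzyme and compound were pre-mixed 15 min, then 2 uM Z-FR-AMC substrate added; reaction progress from fluorescence change between first and third reads (60 s).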
RE007 growth inh – less growth of the S. pombe RE007 Vpr strain | Potency, µM (highest dose often 92.2 µM), without a hit: at the highest dose activity change, negative = less growth | S. pombe RE007 Vpr strain, BacTiter-Glo ATP luminescence, 24 h; control for the full effect not named in the record | 360,000 compounds, 0.21% hits | AID 651644; active = well fitted falling curve with a large enough effect; inconclusive = small, poorly fitted or top-dose-only effect; inactive = no such curve, though single readings can be large or run the other way;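 further: on the % scale 0 is the no-effect control and ±100 the full control effect; nearly all actives have a fitted effect of over 50% in size; the assay follows cell death caused by Vpr and the record does not say whether a fall means rescue or toxicity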
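Fission yeast strain RE007, carrying one chromosomally integrated HIV-1 vpr copy, was seeded at OD 0.01 in PMG+AL medium with 23 nL pinned compound. After 24 h at 30 °C and 99% humidity, viability was read by BacTiter-Glo luminescence.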
SARS PLpro yeast – blocks SARS-CoV papain-like protease in a yeast assay | Potency, µM (series often up to 32.9 µM), for inactives: top-dose activity, positive = growth rescue | 330,000 compounds, 0.19% hits | S. cerevisiae expressing SARS-CoV PLpro, growth rescue; control for the full effect not named in the record; active means well fitted rising curve with a large enough effect; inconclusive means small, poorly fitted or top-dose-only effect; inactive means no such curve, though single readings can be large or run the other way; further: 0% is about no effect; nearly all actives have a fitted effect of over 55% in size; growth read by luminescence after 48 h
StopGo reporter – lowers the luciferase signal of an FMDV 2A StopGo reporter; 410,000 compounds, 1.2% hits; Potency, µM (titrated, usually from 57.9 µM), without a hit: at the highest dose signal change, negative = less light; human cells with a luciferase reporter of 2A StopGo recoding; control for the full effect not named in the record; active = well fitted falling curve with a large enough effect; inconclusive = small, poorly fitted or top-dose-only effect; inactive = no such curve, though single readings can be large or run the other way; tested in HEK293T cells; further: on the % scale 0 is the no-effect control and ±100 the full control effect; nearly all actives have a fitted effect of over 45% in size; luciferase light after 4 h
Starred values were filed as active, the others as inactive; & = joins results of further samples; [ ] = another dose, or the depositor's remark. Unless noted, the call rests on the fitted dose curve; in most records, active means well fitted curve in the direction sought with a large enough effect; inconclusive means small, poorly fitted or top-dose-only effect, or another doubt; inactive means no such curve, though single readings can be large; an effect the other way counts as inactive or inconclusive. Potency means the concentration at half of the fitted maximal effect.

CCn1c(SCC(=O)Nc2ccc(S(=O)(=O)Nc3ccccn3)cc2)nnc1-c1ccncc1 was read as Lassa entry inh -13%, Cruzain inh Det 2.4%, NS1 inh -2%, MARV entry inh 1%&1%[46.1 µM], Cruzain noTriton 2%, RE007 growth inh 3%, SARS PLpro yeast 3% and StopGo reporter -4%.
O=C1NC(NS(=O)(=O)c2ccc(Cl)cc2)(C(F)(F)F)C(=O)N1Cc1cccnc1 (stereo unspecified) was read as Lassa entry inh 6%, Cruzain inh Det 0.3%, NS1 inh 2%, MARV entry inh inconclusive, Cruzain noTriton -6%, RE007 growth inh -15%, SARS PLpro yeast -18% and StopGo reporter -20%.
For Cc1cc(N2CCCCC2)nc(N2CCOCC2)n1 the results were Lassa entry inh -12%, Cruzain inh Det 8.5%, NS1 inh 3%, MARV entry inh 1%, Cruzain noTriton 7%, RE007 growth inh -18%, SARS PLpro yeast 27% and StopGo reporter 9%.
For CCCn1c(CCC(=O)O)nc2cc(S(N)(=O)=O)ccc21 the results were NS1 inh -1%, RE007 growth inh -1%, SARS PLpro yeast 1% and StopGo reporter -19%.
Cc1ccc(S(=O)(=O)N2CCC(=O)N([C@H](COCc3ccccc3)Cc3ccccc3)CC2)cc1 was read as Cruzain inh Det -1.6%, Cruzain noTriton 7%, RE007 growth inh 18% and StopGo reporter -13%.
`COc1ccc(C(=O)NCC(=O)N/N=C/C(C)=C/c2ccccc2)cc1OC` gave Lassa entry inh 3%, Cruzain inh Det -7.6%, NS1 inh -12%, MARV entry inh -25%, Cruzain noTriton inconclusive, RE007 growth inh 13%, SARS PLpro yeast 12% and StopGo reporter -21%.
COc1ccccc1CN1CCN(S(=O)(=O)c2ccc(C)cc2)CC1 was read as Lassa entry inh -1%, MARV entry inh 5%, RE007 growth inh -7% and StopGo reporter -15%.
CCOC(=O)C1=C(C)N(CCCC(=O)O)C(=O)NC1c1ccc(Cl)cc1 (stereo unspecified) was read as NS1 inh -8%, RE007 growth inh 5%, SARS PLpro yeast -1% and StopGo reporter -13%.
`CCc1cnc2c(c1SCC(=O)c1ccc(Cl)cc1)c(=O)n(C)c(=O)n2C` gave Lassa entry inh -19%[46.1 µM], Cruzain inh Det 0.1%, Cruzain noTriton 9% and StopGo reporter 0%.
Screening Cc1ccc(C(=O)N(C)c2ccc(OCC(=O)N3c4ccc(C)cc4C4CN(C)CCC43)cc2)cc1 (stereo unspecified) returned Lassa entry inh inconclusive, NS1 inh 10%, MARV entry inh inconclusive, RE007 growth inh 1%, SARS PLpro yeast -1% and StopGo reporter 30%[activator].
O=C(O)/C=C/C(=O)Nc1ccc(O)cc1 was read as NS1 inh -1%, RE007 growth inh -4%, SARS PLpro yeast -1% and StopGo reporter -3%.
For Cc1ccsc1C(=O)NCCC(c1ccccc1)c1ccccc1 the results were Lassa entry inh inconclusive, Cruzain inh Det -7.9%, NS1 inh -14%, MARV entry inh 13µM*, Cruzain noTriton -3%, RE007 growth inh 6%, SARS PLpro yeast 8% and StopGo reporter -8%.
Screening CCOc1cc(/C=N/NC(=O)C(=O)NCCCOC(C)C)cc(Br)c1O returned Lassa entry inh 5%, Cruzain inh Det 0.1%, NS1 inh 23%, MARV entry inh 12%, Cruzain noTriton inconclusive, RE007 growth inh 3%, SARS PLpro yeast 6% and StopGo reporter -10%.
Screening C/C(=N\Nc1nc2ccccc2[nH]1)c1ccc(N2CCOCC2)cc1 returned Lassa entry inh 10µM*, MARV entry inh inconclusive, RE007 growth inh -2%, SARS PLpro yeast 0% and StopGo reporter -54%.
Screening O=C1Nc2ccccc2Nc2ccccc21 returned Lassa entry inh inconclusive, NS1 inh -2%, MARV entry inh -7%, RE007 growth inh -3%, SARS PLpro yeast 1% and StopGo reporter 3%.
For O=C(c1ccccc1)c1ccc(Cn2cc(-c3ccccc3)nn2)cc1 the results were NS1 inh -13%, RE007 growth inh -7%, SARS PLpro yeast -3% and StopGo reporter -6%.
CC(C)Oc1ccc(S(=O)(=O)N2CCOCC2)cc1NC(=O)C1=NN(c2ccccc2)C(=O)CC1 was read as Lassa entry inh inconclusive, MARV entry inh -16%, RE007 growth inh 0%, SARS PLpro yeast 4% and StopGo reporter -19%.
Screening CCOC(=O)Cn1c(=O)oc2cc(S(=O)(=O)N3CCc4ccccc43)ccc21 returned Cruzain inh Det -0.6%, NS1 inh -12%, Cruzain noTriton 2%, RE007 growth inh 0%, SARS PLpro yeast 3% and StopGo reporter 0%.
`O=C(c1ccco1)N1CCN(CCOCCOc2cccc3ccccc23)CC1` gave Lassa entry inh -18%, Cruzain inh Det -4.7%, NS1 inh -15%, MARV entry inh inconclusive, Cruzain noTriton 6%, RE007 growth inh -11% and SARS PLpro yeast 3%.
For CCN(CC)S(=O)(=O)c1ccc(OC)c(NC(=O)CC2CCCC2)c1 the results were Lassa entry inh -3%, NS1 inh -6%, MARV entry inh 6%[46.1 µM], RE007 growth inh -4%, SARS PLpro yeast -2% and StopGo reporter 23%.
`C#CCn1c(=NC(=O)c2ccc(S(=O)(=O)N3CCc4ccccc4C3)cc2)sc2cc(S(N)(=O)=O)ccc21` gave Lassa entry inh 9.2µM*, Cruzain inh Det -22%, NS1 inh inconclusive, MARV entry inh 14µM*, Cruzain noTriton 10µM*, RE007 growth inh 21%, SARS PLpro yeast -8% and StopGo reporter -19%.
`Clc1ccccc1Oc1cnc2ccccc2n1` gave Lassa entry inh 0%, Cruzain inh Det -2.2%, NS1 inh -4%, MARV entry inh 9%, Cruzain noTriton 6%, RE007 growth inh -14%, SARS PLpro yeast 4% and StopGo reporter 26%.
Cc1cc(C)nc(NC(=O)c2c(Cl)cccc2Cl)n1 was read as Lassa entry inh 9%, NS1 inh 3%, MARV entry inh 11%[46.1 µM], RE007 growth inh 13%, SARS PLpro yeast 0% and StopGo reporter -7%.
`O=C(Cn1ncn2nc(-c3cccs3)cc2c1=O)NCc1cccc(Br)c1` gave Lassa entry inh -5%[46.1 µM], Cruzain inh Det -4.4%, MARV entry inh -3%[46.1 µM], Cruzain noTriton -10% and StopGo reporter -18%.
Screening COCCNC(=O)C(C)N1c2cccc3cccc(c23)S1(=O)=O (stereo unspecified) returned Lassa entry inh -7%, Cruzain inh Det -0.1%, NS1 inh 11%, MARV entry inh 6%[46.1 µM], Cruzain noTriton -1%, RE007 growth inh 8%, SARS PLpro yeast -4% and StopGo reporter -22%.
For Cc1cc(C)c(C)c(S(=O)(=O)N2CCC(C(=O)NNC(=O)c3ccccc3O)CC2)c1C the results were Lassa entry inh inconclusive, MARV entry inh 2%, RE007 growth inh -11%, SARS PLpro yeast 0% and StopGo reporter 0%.
Screening Cc1ccn2c(NC(=O)c3cccc(Cl)c3)c(-c3ccccc3)nc2c1 returned Lassa entry inh -10%[46.1 µM], Cruzain inh Det -8.2%, MARV entry inh inconclusive, Cruzain noTriton inconclusive and StopGo reporter 12%.

Arranged by molecular weight (ascending): some entries from above.
`Clc1ccccc1Oc1cnc2ccccc2n1` gave Lassa entry inh 0%, Cruzain inh Det -2.2%, NS1 inh -4%, MARV entry inh 9%, Cruzain noTriton 6%, RE007 growth inh -14%, SARS PLpro yeast 4% and StopGo reporter 26%.
Screening C/C(=N\Nc1nc2ccccc2[nH]1)c1ccc(N2CCOCC2)cc1 returned Lassa entry inh 10µM*, MARV entry inh inconclusive, RE007 growth inh -2%, SARS PLpro yeast 0% and StopGo reporter -54%.
Screening Cc1ccn2c(NC(=O)c3cccc(Cl)c3)c(-c3ccccc3)nc2c1 returned Lassa entry inh -10%[46.1 µM], Cruzain inh Det -8.2%, MARV entry inh inconclusive, Cruzain noTriton inconclusive and StopGo reporter 12%.
Screening CCOc1cc(/C=N/NC(=O)C(=O)NCCCOC(C)C)cc(Br)c1O returned Lassa entry inh 5%, Cruzain inh Det 0.1%, NS1 inh 23%, MARV entry inh 12%, Cruzain noTriton inconclusive, RE007 growth inh 3%, SARS PLpro yeast 6% and StopGo reporter -10%.
`O=C(Cn1ncn2nc(-c3cccs3)cc2c1=O)NCc1cccc(Br)c1` gave Lassa entry inh -5%[46.1 µM], Cruzain inh Det -4.4%, MARV entry inh -3%[46.1 µM], Cruzain noTriton -10% and StopGo reporter -18%.
O=C1NC(NS(=O)(=O)c2ccc(Cl)cc2)(C(F)(F)F)C(=O)N1Cc1cccnc1 (stereo unspecified) was read as Lassa entry inh 6%, Cruzain inh Det 0.3%, NS1 inh 2%, MARV entry inh inconclusive, Cruzain noTriton -6%, RE007 growth inh -15%, SARS PLpro yeast -18% and StopGo reporter -20%.
